# From PubChem
# Mtb H37Rv: M. tuberculosis H37Rv growth inhibitors, H37Rv strain (AID 1626); inhibition, % at 10 µM, or IC50 in µM where a hit was titrated; M. tuberculosis H37Rv growth inhibition; higher % means a stronger effect; actives 0.95% (n = 220,000);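 active means confirmed in a dose series; inconclusive means inhibition above 80% but not taken into the dose series; inactive means below 80% or under 30% at every dose of the series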;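 further: bacteria incubated seven days before Alamar blue readout; 0% = bacteria only wells and 100% = bacteria with antibiotic wells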
# YopH PTP inh: YopH tyrosine phosphatase inhibitors, primary screen, biochemical, fluorescence Ex485/Em525; YopH tyrosine phosphatase [Yersinia enterocolitica]; inhibition, %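 (about 10 µM by stock and volumes)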; actives 0.16% (n = 140,000);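 active means inhibition of 50% or more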;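 further: controls were vehicle for no effect and minimum signal wells for full effect; inactives centre near -20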
# RecA intein inh: Mtb RecA intein splicing inhibitors, primary screen, biochemical, fluorescence, HTS; Protein RecA (Mycobacterium tuberculosis (strain ATCC 25618 / H37Rv)), P9WHJ3; cell-free RecA intein splicing; inhibition, %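 (about 9 µM by stock and volumes)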; actives 0.75% (n = 290,000); AID 2221, 2009; in the data active means inhibition above about 30%; inconclusive means no clear call, values can overlap the other calls;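 further: 0% = vehicle wells and 100% = reference inhibitor control wells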
# Target sequence (P9WHJ3 whole entry, looked up): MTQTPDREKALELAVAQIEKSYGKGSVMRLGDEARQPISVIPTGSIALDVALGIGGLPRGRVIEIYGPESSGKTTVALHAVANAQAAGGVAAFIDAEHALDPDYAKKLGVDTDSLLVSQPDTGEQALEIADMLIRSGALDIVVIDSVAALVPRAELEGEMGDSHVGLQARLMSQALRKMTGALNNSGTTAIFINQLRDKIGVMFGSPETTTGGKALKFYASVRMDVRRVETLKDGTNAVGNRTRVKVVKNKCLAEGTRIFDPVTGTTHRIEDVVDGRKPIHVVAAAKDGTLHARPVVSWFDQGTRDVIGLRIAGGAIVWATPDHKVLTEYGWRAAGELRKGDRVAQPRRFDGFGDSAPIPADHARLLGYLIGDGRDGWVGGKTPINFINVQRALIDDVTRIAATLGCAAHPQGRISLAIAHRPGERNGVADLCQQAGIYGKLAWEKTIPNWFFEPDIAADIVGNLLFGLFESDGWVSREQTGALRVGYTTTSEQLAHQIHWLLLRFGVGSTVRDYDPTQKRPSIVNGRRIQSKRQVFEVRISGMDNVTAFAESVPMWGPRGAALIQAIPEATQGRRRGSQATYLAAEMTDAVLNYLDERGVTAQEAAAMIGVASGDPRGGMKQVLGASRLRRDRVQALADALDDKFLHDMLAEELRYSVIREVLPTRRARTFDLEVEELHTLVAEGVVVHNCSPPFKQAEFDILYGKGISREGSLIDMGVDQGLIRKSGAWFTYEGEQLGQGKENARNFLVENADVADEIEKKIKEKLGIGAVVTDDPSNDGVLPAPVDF
# Mtb bLac sens: beta-lactam sensitization of Mtb H37Rv, H37Rv; M. tuberculosis H37Rv growth with meropenem, percent inhibition; hits of this screen are not shown here; inhibition, % at 25 µM; actives 0.27% (n = 330,000); AID 434955, 2010;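 active means about 74% or more and at least 40 points above the plate without the antibiotic, then above 30% in a dose series; inconclusive means first-round hits that could not be retested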;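 further: growth measured after seven days incubation then overnight dye step; 0% = bacteria only wells and 100% = bacteria with antibiotic; twin plates without the antibiotic show which effects depend on it; some results filed as inactive read as strong as hits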
# Arbovirus inh: antivirals against arbovirus infection, primary screen, cell-based, full library, 10K replicate subset; arbovirus infection cell-based antiviral screen; inhibition, % at 10 µM; actives 0.37% (n = 200,000); AID 1251, 2008;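 active means inhibition from about 30%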;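 further: bluetongue infection of BSR cells; cell survival read as ATP light after 72 h; 0% = infected wells without compound and 100% = uninfected wells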
# Arbovirus inh repeat: further read-out of Arbovirus inh, marked with its call; inhibition, %; measured here: 10K subset replicate screen; many hits read low in the repeat;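 first of two repeat runs on a subset; 0% = infected and 100% = uninfected wells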
# * marks the source's active call; other numbers are inactive results; ? = inconclusive; / = not tested or not shown. This is a subset. The share of hits here may be higher or lower than overall.
SMILES,Mtb H37Rv,YopH PTP inh,RecA intein inh,Mtb bLac sens,Arbovirus inh,others
CN(Cc1c(C(=O)N/N=C/c2cccc(F)c2)nnn1-c1nonc1N)C1CCCCC1,/,/,-0.5,4,/,
O=C(Nc1ccc(Nc2ccccc2)cc1)C1CC1,-5%,-1,12,16,-10,
O=C(COC(=O)c1ccc([N+](=O)[O-])s1)NC(c1ccccc1)c1ccccc1,4%,-27,4.9,13,-2,
Cc1ccc(C(=O)NCCNc2nc3cc(C)c(C)cc3cc2C)cc1,16%,/,-0.5,-4,-2,
C=CCSc1nnc(NC(=O)Cn2cnc3c2c(=O)n(C)c(=O)n3C)s1,-4%,/,0.1,0,5,
Cc1cc2nc(SCCN3CCOCC3)[nH]c2cc1C,-15%,-24,-1.4,11,-2,
COc1cccc(CSCC(=O)NCCc2ccccc2)c1OC,/,/,-0.7,2,/,
CN(C)S(=O)(=O)Oc1ccccc1C(=O)Nc1ccccc1Cl,-2%,/,/,5,-5,
CN1CCCC(OC(=O)COc2ccccc2)C1 (centres undefined),-6%,-13,1.2,-3,-7,
COC(=O)C1C(=O)C2=C(CC1C)NC(=O)CC2c1ccc(O)c(OC)c1 (centres undefined),-3%,-38,-4.9,-10,6,
CC1CCCN(CCC(=O)Nc2ccccc2)C1 (centres undefined),-2%,/,-1.3,-1,-1,
Cc1[nH]c2ccccc2c1CCCO,-11%,/,-67,7,/,
CCCCN1CC(=O)N2[C@H](c3ccc(OC)cc3)[C@@H]3C(=O)N(CC)C(=O)[C@@H]3[C@]2(Cc2ccccc2)C1=O,/,/,-0.5,-3,/,
O=C(CSc1nnc2ccccn12)c1ccc(OC(F)F)cc1OC(F)F,1%,-35,1.4,16,-2,
CS(=O)(=O)N(CC(=O)Nc1ccc(S(=O)(=O)N2CCCC2)cc1)c1ccccc1F,2%,-28,-6.7,5,3,
CO/N=C/CC(=O)c1ccc(-c2ccccc2)cc1,6%,/,-5.5,56,-5,
CCN1C(=NCc2ccc(OC)cc2)N[C@@H](c2ccccc2)C(C(=O)OC)=C1C,/,/,0.5,-4,/,
CCc1c(C)nc(SCC(N)=O)c(C#N)c1C,-1%,-33,5.2,2,12,
O=C1CCC(O)CCN1CCSc1ccccc1 (centres undefined),/,/,1.2,-2,/,
CC(OC(=O)c1cccc(S(=O)(=O)Nc2ccccc2F)c1)C(=O)NCc1ccc2c(c1)OCO2 (centres undefined),2%,-4,0.3,0,-2,
Cc1nc2cc(C(=O)O)ccc2n1-c1ccccc1,-3%,/,0.4,-2,3,Arbovirus inh repeat=-3
O=C(CSc1nc2ccccc2c(=O)n1CC1CCCO1)N1CCN(c2ccccc2)CC1 (centres undefined),-9%,-19,0.5,-10,/,
NNC(=O)COc1ccccc1[N+](=O)[O-],-2%,/,-1.1,2,-2,
COC(=O)Cc1cnc(NC(=O)CSc2nc(C(C)C)cc(=O)[nH]2)s1,/,/,-0.4,-2,/,
Cc1cc(NC(=O)c2ccc(S(=O)(=O)N(C)C)cc2)no1,-1%,-41,1.6,8,5,

# Next entries follow:
SMILES,Mtb H37Rv,YopH PTP inh,RecA intein inh,Mtb bLac sens,Arbovirus inh,others
Cc1nc2nc(SCC(=O)N3CCOCC3)nn2c(C)c1Cc1ccccc1,-6%,-25,0.8,-5,0,Arbovirus inh repeat=4
COc1ccc(-n2c(=S)[nH]c3cc(C(=O)Nc4ccc(F)cc4)ccc3c2=O)c(OC)c1,/,/,4.7,52,/,
CCCN1CCN(C(=O)c2cc(COc3ccc4ncccc4c3)on2)CC1,2%,/,-0.5,0,14,
CCc1n[nH]c(=S)n1/N=C/C(C)=C\c1ccccc1,/,/,1.6,-2,/,
CCCS(=O)(=O)N1CCC(C(=O)NCc2ccc(F)cc2)CC1,7%,-30,-11,-5,3,
Cc1ccc(S(=O)(=O)NCC(=O)N(CC(=O)NCc2ccco2)Cc2cccs2)cc1,-1%,-8,-0.5,10,10,
O=C(O)c1cc(NC(=O)C2CCCO2)cc(C(=O)O)c1 (centres undefined),/,/,1.0,2,/,
O=C(O)C1C2CCC(C2)C1C(=O)Nc1ccccc1 (centres undefined),/,/,-2.2,2,/,
COc1ccc(NC(=S)Nc2cc(-c3ccccc3)[nH]n2)cc1Cl,?,-13,-3.6,9,15,
Nn1c(COc2ccccc2)nc2ccccc2c1=O,3%,-20,/,-4,0,
Cc1cc(Cl)ccc1OCC(=O)Nc1cccc(S(=O)(=O)NC2=NCCCCC2)c1,/,/,4.6,-1,/,
Cc1ccc(CNC(=O)c2ccc(OCC(C)C)cc2)n1C,/,/,5.9,-4,/,
CCN(CC(=O)NCc1ccc(F)cc1)Cc1cc(=O)n2ccsc2n1,-3%,/,0.0,0,21,
COc1cc(/C=N/NC(=O)c2[nH]nc3c2CCc2ccccc2-3)ccc1O,7%,-20,/,13,-13,
CCCn1nnc(NC(=O)Cc2ccc(Cl)cc2)n1,4%,-18,-1.2,-2,3,
COc1ccccc1/C=C/C=N/NC(=O)c1ccc2nc[nH]c2c1,3%,/,-1.1,-2,-1,
CCOC(=O)N/N=C\C=C\c1ccco1,0%,-6,-1.1,-7,1,
COc1ccc(N(Cc2cc(=O)[nH]c3ccccc23)C(=O)c2ccco2)cc1,-15%,-29,2.1,6,0,
COc1ccc(-n2nnnc2SCC(=O)Nc2ccccc2F)cc1,/,/,-12,-4,/,
O=C(CSc1cccc[n+]1[O-])Nc1cc([N+](=O)[O-])ccc1Cl,4%,/,-1.5,4,2,
Cc1ccc(-c2cnc3c(Cl)c(C)nn3c2)cc1,1%,/,9.3,-1,-17,
O=C(NCc1ccccc1Cl)C1CCC(CNc2c(N3CCOCC3)c(=O)c2=O)CC1 (centres undefined),1%,/,-5.3,-6,/,
CCc1c(C)sc(NC(=S)N2CC(C)OC(C)C2)c1C(=O)OC (centres undefined),-1%,/,3.5,18,24,
CCOc1ccc2cc(C3CC(c4ccco4)=NN3S(C)(=O)=O)c(Cl)nc2c1 (centres undefined),4%,/,-2.5,1,/,
COc1ccc(CCn2c(O)c(/C=N/NC(=O)c3ccncc3)c(=O)[nH]c2=O)cc1OC,?,-20,-1.8,99,-9,

# Part of the list above in order of molecular weight, lowest first.
SMILES,Mtb H37Rv,YopH PTP inh,RecA intein inh,Mtb bLac sens,Arbovirus inh,others
Nn1c(COc2ccccc2)nc2ccccc2c1=O,3%,-20,/,-4,0,
O=C(O)c1cc(NC(=O)C2CCCO2)cc(C(=O)O)c1 (centres undefined),/,/,1.0,2,/,
Cc1ccc(CNC(=O)c2ccc(OCC(C)C)cc2)n1C,/,/,5.9,-4,/,
COc1ccc(-n2nnnc2SCC(=O)Nc2ccccc2F)cc1,/,/,-12,-4,/,

# Copied from above, 2 compounds:
SMILES,Mtb H37Rv,YopH PTP inh,RecA intein inh,Mtb bLac sens,Arbovirus inh,others
Cc1ccc(-c2cnc3c(Cl)c(C)nn3c2)cc1,1%,/,9.3,-1,-17,
O=C(NCc1ccccc1Cl)C1CCC(CNc2c(N3CCOCC3)c(=O)c2=O)CC1 (centres undefined),1%,/,-5.3,-6,/,

# (further entries)
SMILES,Mtb H37Rv,YopH PTP inh,RecA intein inh,Mtb bLac sens,Arbovirus inh,others
COc1cc2c(cc1OC)C(c1ccco1)CC(=O)N2 (centres undefined),0%,-26,-5.4,-5,-1,Arbovirus inh repeat=2
CN(C)S(=O)(=O)c1ccc(N2CCCC2)c(C(=O)NC2(C)CCS(=O)(=O)C2)c1 (centres undefined),/,/,-1.4,-5,/,
Cc1occc1C(=O)NCc1ccc2c(c1)OCO2,-7%,-8,1.0,2,-3,Arbovirus inh repeat=1
Cn1c(=O)c2c(SCC(=O)Nc3ccccc3F)nc(-c3ccccc3F)nc2n(C)c1=O,/,/,2.0,-2,/,
Cc1ccc(CCNC(=O)C2CCCN(C(=O)c3cc4sccc4n3C)C2)cc1 (centres undefined),17%,-33,1.5,3,17,
CCNC(=O)CC1C(=O)N(c2ccc(C)cc2)C(=O)N1Cc1ccccn1 (centres undefined),-6%,37,0.0,4,10,
Cc1ccc(CC2SC(=Nc3ccccc3)N(c3ccccc3)C2=O)cc1 (centres undefined),19%,-15,5.6,12,-13,
Cc1c(NC(=O)Cn2ccc([N+](=O)[O-])n2)c(=O)n(-c2ccccc2)n1C,-10%,-12,/,1,0,
Cc1ccc(N2C(=O)CC(Sc3nccc(C)n3)C2=O)cc1 (centres undefined),/,/,1.0,0,/,
CC(/C=N/n1c(-c2ccc(C)cc2)n[nH]c1=S)=C\c1ccco1,8%,-23,8.5,9,5,
CCOC(=O)c1[nH]ncc1CN1CCCC(C(=O)c2cccc(Cl)c2)C1 (centres undefined),-12%,/,1.3,-8,/,
CC(C)(C)C(=O)N1CCN(c2nc3ccc(Br)cc3s2)CC1,/,/,-4.1,3,/,
COc1ccc(C(=O)OCC(=O)NC(C)CCc2ccccc2)cc1OC (centres undefined),/,/,-1.3,0,/,
CCOC(=O)N1CCc2c(sc(NC(=O)C3=COCCO3)c2C(N)=O)C1,/,/,-0.7,4,/,
O=C(COc1ccccc1F)Nc1nnc(-c2ccncc2)s1,-6%,-12,-1.0,-2,1,
Cc1ccc2c(c1)N(CCCC(=O)Nc1cccc(C(F)(F)F)c1)C(=O)CO2,/,/,-0.2,-2,/,
CC1=NN(S(=O)(=O)c2ccc(C)cc2)C(=O)c2ccccc2O1,/,/,-0.8,0,/,
CCOc1ccc(NC(=O)Nc2ccccc2C(N)=O)cc1,-3%,/,-2.5,1,1,
Cc1ccc(C2(C)NC(=O)N(CC(=O)NC(C)c3ccccc3)C2=O)cc1 (centres undefined),/,/,1.5,2,/,
COC(=O)C1=C(N)Oc2cc(C)n(Cc3cccnc3)c(=O)c2C1c1ccccc1OC (centres undefined),-6%,-17,-2.4,-2,2,
COc1cccc(-c2nc(N3CCN(C)CC3)c3ccccc3n2)c1O,11%,/,-2.0,64,/,
CC(=O)c1c(OC(=O)c2ccccc2Br)ccc2c(C)cc(=O)oc12,-4%,-37,-1.4,0,2,
O=C(c1ccccc1F)N1CCN(S(=O)(=O)c2ccc3ccccc3c2)CC1,/,/,-0.8,7,/,
O=C(COc1ccc2ccc(=O)oc2c1)N1CCC(C(=O)O)(c2ccccc2)CC1,/,/,20,-6,/,
COc1ccc(NS(=O)(=O)c2cccc(C(=O)NCC(c3ccc(OC)cc3)N3CCCC3)c2)cc1 (centres undefined),/,/,1.5,-2,/,

# (list continues)
SMILES,Mtb H37Rv,YopH PTP inh,RecA intein inh,Mtb bLac sens,Arbovirus inh,others
O=C(O)CNC(=S)N(Cc1ccco1)Cc1ccccc1Cl,-12%,-33,-5.8,-2,-1,
O=C(NCC1CCCO1)C1c2ccccc2C(=O)N1Cc1ccc2c(c1)OCO2 (centres undefined),1%,6,-0.1,-13,1,
O=C(NNC(=O)C1CCCCC1)c1ccco1,6%,/,2.3,-1,4,
CN1C(=O)N(C)C(=O)C(CCc2ccncc2)(Cc2ccc3c(c2)OCO3)C1=O,-5%,-36,-1.1,-7,15,
O=C(COC(=O)c1cc2ccccc2oc1=O)Nc1cccc(S(=O)(=O)N2CCCCCC2)c1,6%,-50,-0.3,7,4,
COc1ccc(NC(=O)C(=O)NCCN2CCN(C(=O)c3cccc(Br)c3)CC2)cc1,/,/,-3.8,-5,/,
c1ccc(CCNC2=NCCS2)cc1,/,/,-0.1,-4,/,
Cn1c(C(=O)NC2CCCC2)cc2c(=O)n(C)c3ccccc3c21,1%,-17,-1.0,4,-11,Arbovirus inh repeat=-14
Cc1cc([N+](=O)[O-])nn1CC(=O)N1CCN(Cc2ccccc2)CC1,0%,/,-1.9,2,6,
OC(COCc1ccccc1)CN1CCCCC1 (centres undefined),/,/,1.3,0,/,
CCOC(=O)c1sc(NC(=O)COC(=O)CNC(=O)C2CCCCC2)c(C(=O)OCC)c1C,-2%,-16,0.6,-1,-8,
OCCN(Cc1ccccc1)Cc1ccc(Cl)cc1,20%,3,-0.3,4,4,
CCOc1cc2c(cc1OC)C(NC(=O)c1ccco1)CC2=O (centres undefined),/,/,-0.6,4,/,
COCc1cccc(N2C(=O)CC(C3C=C(C)C4C(=O)N(c5cccc(COC)c5)C(=O)C4C3)C2=O)c1 (centres undefined),21%,/,-1.6,-10,10,
COc1ccc(CC(=O)Nc2cccc(-c3nnc(-c4ccccc4)o3)c2)cc1OC,1%,0,0.1,/,2,
Cc1ccc(C)c(NC(=O)CN2C(=O)COc3ccc(S(=O)(=O)N4CCCC4)cc32)c1,/,/,-0.1,6,/,
CCn1cc(C(=O)N2CCN(c3ccc(OC)cc3)CC2)c2cc(OC)c(OC)cc2c1=O,0%,/,2.6,-9,-1,
CCN(CC(=O)Nc1ccccc1C(F)(F)F)C(=O)CSCc1ccc(C)cc1,/,/,1.1,-11,/,
